Compound activity from PubChem.
AF4-AF9 inh – inhibitors of human MLL-AF4/AF9 interaction. P42568. AlphaScreen, biotin-AF4 peptide binding to FLAG-AF9. inhibition, % at 10 µM. 350,000 tested, 0.47% active;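 active = every replicate reaching a set inhibition limit, whatever the replicate mean, cut at about 25% in these data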;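 note: 0% = plate neutral control median and 100% = total signal loss; the record names both 10 and 1 µM as test concentration; the first replicate is given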
Target sequence (P42568 whole entry, looked up): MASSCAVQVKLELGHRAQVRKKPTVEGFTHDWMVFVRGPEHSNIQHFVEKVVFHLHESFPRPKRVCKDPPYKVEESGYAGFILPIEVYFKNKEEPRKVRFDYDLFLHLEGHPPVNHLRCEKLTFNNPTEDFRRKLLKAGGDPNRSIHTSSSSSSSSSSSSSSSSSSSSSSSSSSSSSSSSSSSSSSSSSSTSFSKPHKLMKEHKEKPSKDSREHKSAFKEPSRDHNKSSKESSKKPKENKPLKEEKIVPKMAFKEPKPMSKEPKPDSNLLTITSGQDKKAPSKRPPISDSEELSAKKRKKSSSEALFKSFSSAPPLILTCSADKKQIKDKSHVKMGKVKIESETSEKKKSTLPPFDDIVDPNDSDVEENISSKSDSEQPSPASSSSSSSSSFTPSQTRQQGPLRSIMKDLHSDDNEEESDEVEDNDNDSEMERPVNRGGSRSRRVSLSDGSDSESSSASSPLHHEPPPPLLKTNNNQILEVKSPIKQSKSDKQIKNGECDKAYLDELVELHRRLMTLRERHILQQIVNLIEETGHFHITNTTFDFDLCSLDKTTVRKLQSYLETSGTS
* = called active by the depositor. An excerpt. The share of hits here may be higher or lower than overall.

For O=C(Nc1cccc(C(F)(F)F)c1)C1CC(=O)N(Cc2ccco2)C1 (stereo not given) the results were AF4-AF9 inh 1.4.
`O=C(Nc1cccc(F)c1)N1C[C@@H]2[C@H](c3ccccc31)[C@H](CO)N2C(=O)Cc1ccccc1` gave AF4-AF9 inh -3.5.
COc1ccc2c3c(n(C)c2c1)[C@H](CO)N(C(=O)Cc1ccccn1)CC31CCN(CC2CCCC2)CC1 was read as AF4-AF9 inh 0.0.
For COc1ccc2c3c([nH]c2c1)[C@H](CO)N(C(=O)C1CCCC1)CC31CCN(C)CC1 the results were AF4-AF9 inh 2.7.
For O=C(C[C@H]1C=C[C@H](NC(=O)c2ccc3c(c2)OCO3)[C@H](CO)O1)NCc1ccc(Cl)cc1 the results were AF4-AF9 inh -0.5.
CNC(=O)C[C@H]1CC[C@H]2[C@@H](COC[C@@H](O)CN2S(=O)(=O)c2cccc(Cl)c2)O1 was read as AF4-AF9 inh 0.8.
`C[C@H](CO)N1C[C@H](C)[C@H](CN(C)C(=O)C2CC2)Oc2cc(-c3ccncc3)ccc2S1(=O)=O` gave AF4-AF9 inh -0.4.
`COC(=O)C[C@@H]1CC[C@@H](NS(=O)(=O)c2ccc(F)cc2)[C@@H](CO)O1` gave AF4-AF9 inh -1.2.
`O=C(NC1Cc2ccccc2C1)[C@H]1[C@H](CO)[C@H]2Cn3c(cccc3=O)[C@H]2N1C(=O)C1CC1` gave AF4-AF9 inh 0.5.
O=C(C[C@@H]1C[C@H]2c3cc(NC(=O)Nc4ccc(C(F)(F)F)cc4)ccc3O[C@H]2[C@@H](CO)O1)NC1CCCCC1 was read as AF4-AF9 inh -1.6.
Screening COc1ccc(-c2ccc(C(=O)Nc3ccccc3)c3occc23)c(C)c1 returned AF4-AF9 inh -7.9.
CN(C)Cc1csc(NC(=O)Nc2ccccc2Oc2ccccc2)n1 was read as AF4-AF9 inh 8.3.
`CO[C@H]1CN(C)C(=O)c2ccc(NS(C)(=O)=O)cc2OC[C@H](C)N(Cc2cncnc2)C[C@H]1C` gave AF4-AF9 inh -14.
`C[C@H]1CN([C@@H](C)CO)C(=O)c2cc(C#CCC3CCCC3)cnc2O[C@@H]1CN(C)Cc1ccccn1` gave AF4-AF9 inh -9.0.
`CNC(=O)C[C@@H]1CC[C@@H]2[C@H](COc3ccc(NC(=O)Nc4ccc(F)cc4)cc3C(=O)N2C)O1` gave AF4-AF9 inh 0.5.
`COC(=O)C[C@@H]1CC[C@H]2[C@@H](COc3ccc(NC(=O)Nc4cccc(C#N)c4)cc3C(=O)N2C)O1` gave AF4-AF9 inh -0.1.
Screening Cc1noc(C)c1NC(=O)N(C)C[C@H]1Oc2ccc(NC(=O)CCCCCC(=O)Nc3ccccc3N)cc2C(=O)N([C@@H](C)CO)C[C@H]1C returned AF4-AF9 inh 0.8.
Screening C[C@@H]1CCCCO[C@@H](CN(C)Cc2ccncc2)[C@H](C)CN([C@H](C)CO)C(=O)c2cc(NC(=O)Nc3cccc4ccccc34)ccc2O1 returned AF4-AF9 inh 2.7.
For O=C(Nc1ccc(F)cc1)N1CCCCN2[C@H](C1)[C@H](c1ccc(-c3cccc(F)c3)cc1)[C@@H]2CO the results were AF4-AF9 inh -8.0.
Screening C[C@H]1CN([C@@H](C)CO)C(=O)c2cc(Br)cnc2O[C@H]1CN(C)Cc1ccc2c(c1)OCO2 returned AF4-AF9 inh -2.0.
For COCCCn1cc(CN2CC(N3CCCCC3)CS2(=O)=O)nn1 (stereo not given) the results were AF4-AF9 inh -0.3.
`C[C@@H]1CN([C@H](C)CO)C(=O)c2cc(NC(=O)C3CCCCC3)ccc2O[C@@H]1CN(C)S(C)(=O)=O` gave AF4-AF9 inh -1.9.
COc1cccc(NC(=O)N(C)C[C@@H]2Oc3cc(C#CC4(O)CCCC4)ccc3S(=O)(=O)N([C@@H](C)CO)C[C@H]2C)c1 was read as AF4-AF9 inh -2.4.
Screening CC(=O)c1cccc(-c2ccnc3c2CC(C(=O)NCc2ccccc2)O3)c1 (stereo not given) returned AF4-AF9 inh 5.9.
CC(C)C#Cc1ccc2c(c1)O[C@H](CN(C)C(=O)CC1CC1)[C@@H](C)CN([C@H](C)CO)S2(=O)=O was read as AF4-AF9 inh 5.5.
`O=C(NCc1ccncn1)[C@@H]1[C@@H](CO)[C@@H]2Cn3c(cccc3=O)[C@H]1N2CC1CC1` gave AF4-AF9 inh -1.0.
CC=Cc1ccc2n(c1=O)C[C@@H]1[C@@H](CO)[C@H](C(=O)NC3CCC3)N(C(=O)C3CC3)[C@H]21 (mixture of isomers) was read as AF4-AF9 inh -3.3.
`C[C@@H]1CN([C@H](C)CO)C(=O)c2cc(NC(=O)C3CCCCC3)ccc2O[C@@H](C)CCCCO[C@H]1CN(C)S(=O)(=O)c1cccs1` gave AF4-AF9 inh -1.5.
For COc1ccc(S(=O)(=O)N(C)C[C@H]2Oc3c(NC(=O)c4nc5ccccc5s4)cccc3C(=O)N([C@H](C)CO)C[C@H]2C)cc1 the results were AF4-AF9 inh -0.5.
`COc1ccc(NC(=O)N(C)C[C@H]2Oc3c(NC(=O)c4cc(C)nn4C)cccc3C(=O)N([C@@H](C)CO)C[C@@H]2C)cc1` gave AF4-AF9 inh -1.9.
For CC(C)COC(=O)N(C)C[C@@H]1OCc2ccccc2-c2c(n(C)c3ccccc23)C(=O)N([C@@H](C)CO)C[C@H]1C the results were AF4-AF9 inh -0.3.
Cc1ccccc1S(=O)(=O)N1CCCCN2[C@@H](CO)[C@H](c3ccc(-c4ccccc4)cc3)[C@@H]2C1 was read as AF4-AF9 inh -1.1.
`COc1ccc(CCNC(=O)Nc2ccc3c(c2)c(=O)n(C)n3Cc2ccc(F)cc2)cc1OC` gave AF4-AF9 inh 0.3.
Screening CC(C)NC(=O)Nc1ccc2c(c1)C(=O)N([C@@H](C)CO)C[C@@H](C)[C@@H](CN(C)Cc1ccc(Cl)c(Cl)c1)O2 returned AF4-AF9 inh 6.8.
`C[C@](N)(Cc1ccc(O)c(O)c1)C(=O)O` gave AF4-AF9 inh -0.9.
`CCC(=O)N1[C@H](CO)[C@@H](c2ccccc2)C12CN(C(=O)c1cnccn1)C2` gave AF4-AF9 inh -2.2.
Screening Cc1oc2cc3oc(=O)c(CCC(=O)N4CCC(C(=O)O)(c5ccccc5)CC4)c(C)c3cc2c1C returned AF4-AF9 inh -1.2.
Screening CC(=O)N1CCCCN2[C@H](C1)[C@@H](c1ccc(-c3cccc(C)c3)cc1)[C@@H]2CO returned AF4-AF9 inh -1.9.
COc1cccc(S(=O)(=O)N[C@@H]2CC[C@@H](CC(=O)NCc3ccncc3)O[C@H]2CO)c1 was read as AF4-AF9 inh -3.3.
`O=C(c1cccc(S(=O)(=O)NCc2ccccc2)c1)N1CCN(c2ccccc2Cl)CC1` gave AF4-AF9 inh -0.6.
For Cc1noc(C)c1S(=O)(=O)Nc1cccc2c1O[C@H](CN(C)Cc1ccncc1)[C@H](C)CN([C@@H](C)CO)C2=O the results were AF4-AF9 inh -3.6.
For O=C(NCC[C@@H]1CC[C@H](NS(=O)(=O)c2ccc(F)cc2)[C@@H](CO)O1)c1ccccc1F the results were AF4-AF9 inh -2.9.
Screening Cc1c(P(=O)(c2ccccc2)c2ccccc2)c2ccccc2n1C returned AF4-AF9 inh 1.4.
CN1CCN(C(=O)C[C@H]2CC[C@@H]3[C@H](COC[C@@H](O)CN3C(=O)Nc3ccc(F)cc3)O2)CC1 was read as AF4-AF9 inh -1.1.
`O=S1(=O)C[C@H](N2CCC(Cc3ccccc3)CC2)[C@@H](COCc2ccccc2)N1` gave AF4-AF9 inh -1.4.
`CCCN(C)C[C@H]1OCCCC[C@@H](C)Oc2ccc(NS(=O)(=O)c3ccc(F)cc3)cc2C(=O)N([C@H](C)CO)C[C@@H]1C` gave AF4-AF9 inh -15.
C[C@H](CO)N1C[C@H](C)[C@H](CN(C)S(=O)(=O)c2cn(C)cn2)OCCCC[C@H](C)Oc2ccc(NS(=O)(=O)c3cccs3)cc2C1=O was read as AF4-AF9 inh 0.3.
For CO[C@@H](CN(C)Cc1ccc(-c2ccccn2)cc1)[C@@H](C)CN(C(=O)Nc1ccc(F)cc1)[C@@H](C)CO the results were AF4-AF9 inh 2.2.
Screening C[C@@H]1CN([C@@H](C)CO)C(=O)c2cccc(NC(=O)C3CCOCC3)c2O[C@H]1CN(C)S(=O)(=O)c1cccs1 returned AF4-AF9 inh -0.6.
`C[C@@H]1CN([C@H](C)CO)C(=O)c2cccc(NC(=O)NC3CCCCC3)c2O[C@H]1CN(C)S(C)(=O)=O` gave AF4-AF9 inh -1.2.
`CN[C@@H](CO)C(=O)NC[C@H]1O[C@@H](n2cnc3c(N)ncnc32)[C@H](O)[C@@H]1O` gave AF4-AF9 inh -1.8.
For C[C@H]1CN([C@@H](C)CO)C(=O)c2cccc(NC(=O)NC3CCCCC3)c2O[C@H]1CN(C)S(=O)(=O)c1ccccc1 the results were AF4-AF9 inh 3.3.
Screening O=C(Cc1ccncc1)NCC[C@H]1CC[C@H](NC(=O)Nc2ccc(F)cc2)[C@@H](CO)O1 returned AF4-AF9 inh -1.1.
`CCC(=O)N1CCCC(C(=O)Nc2nc3ccccc3n2C)CC1` (stereo not given) gave AF4-AF9 inh 0.9.
For C[C@@H]1CN([C@H](C)CO)C(=O)c2cc(NS(C)(=O)=O)ccc2O[C@@H](C)CCCCO[C@H]1CN(C)Cc1ccc2c(c1)OCO2 the results were AF4-AF9 inh -4.3.
Screening CCC(=O)Nc1ccc2c(c1)OC[C@@H](C)N(Cc1ccccc1)C[C@@H](C)[C@@H](OC)CN(C)C2=O returned AF4-AF9 inh -5.6.
COc1cccc(NC(=O)N[C@H]2CC[C@H](CC(=O)N3CCCCC3)O[C@H]2CO)c1 was read as AF4-AF9 inh -0.8.
O=C(Nc1ccccc1)N1CCCCN2[C@@H](CO)[C@@H](c3ccc(-c4ccncc4)cc3)[C@@H]2C1 was read as AF4-AF9 inh 0.0.
`C[C@@H]1CCCCO[C@@H](CN(C)Cc2ccc(C(F)(F)F)cc2)[C@H](C)CN([C@H](C)CO)C(=O)c2cc(NS(=O)(=O)c3cn(C)cn3)ccc2O1` gave AF4-AF9 inh 1.5.
Screening C[C@@H]1CN([C@H](C)CO)C(=O)c2cc(C#C[C@@H](C)O)cnc2O[C@H]1CN(C)C(=O)c1ccncc1 returned AF4-AF9 inh -2.6.
Screening CN(C[C@H]1N[C@@H](CO)[C@@H]1c1ccc(C2=CCCC2)cc1)C(=O)c1ccc(F)cc1 returned AF4-AF9 inh -10.
For Cc1ccc(S(=O)(=O)NCC[C@H]2CC[C@@H](NS(=O)(=O)c3ccccc3Cl)[C@H](CO)O2)cc1 the results were AF4-AF9 inh -0.8.
Screening C[C@@H]1CCCCO[C@H](CN(C)Cc2ccccc2)[C@H](C)CN([C@@H](C)CO)C(=O)c2cc(NC(=O)NC3CCCCC3)ccc2O1 returned AF4-AF9 inh 3.6.
Screening C[C@@H]1CN([C@@H](C)CO)C(=O)c2cc(-c3ccccc3)cnc2O[C@H]1CN(C)C(=O)C1CCOCC1 returned AF4-AF9 inh -1.0.
CN1C[C@@H]2[C@@H]3C(=O)N(C)C(=O)[C@@H]3[C@](C)(C1=O)N2C(=O)c1ccc(C(C)(C)C)cc1 was read as AF4-AF9 inh -0.5.
For CC(C)NC(=O)C1(C)CCCN1Cc1ccccc1C#N (stereo not given) the results were AF4-AF9 inh 0.3.
Screening CCc1cnc(N2[C@H](CO)[C@@H](c3ccc(C4=CCCCC4)cc3)[C@@H]2C#N)s1 returned AF4-AF9 inh 4.7.
O=C(CC[C@H]1O[C@@H](n2cnc3c(NC(=O)c4ccccc4)ncnc32)[C@H](O)[C@@H]1O)NCc1nc2ccccc2[nH]1 was read as AF4-AF9 inh 1.4.
For NC(Cc1ccccc1)c1csc(Nc2cc(Oc3ccccc3)ncn2)n1 (stereo not given) the results were AF4-AF9 inh 3.4.
`CCCC(O)C#Cc1cnc2c(c1)C(=O)N([C@H](C)CO)C[C@H](C)[C@H](CN(C)S(C)(=O)=O)O2` (stereo not given in full) gave AF4-AF9 inh -1.6.
For CCCC(=O)Nc1ccc2c(c1)OC[C@@H](C)N(C(=O)C1CCCC1)C[C@@H](C)[C@@H](OC)CN(C)C2=O the results were AF4-AF9 inh -1.6.
For C[C@H](CO)N1C[C@H](C)[C@@H](CN(C)C(=O)C2CC2)Oc2ncc(-c3cccnc3)cc2C1=O the results were AF4-AF9 inh -4.8.
Screening CCC(=O)N[C@H]1C=C[C@@H](CC(=O)NCC2CCCCC2)O[C@H]1CO returned AF4-AF9 inh -1.7.

Of the compounds above, these contain an aryl methoxy group:
COc1ccc2c3c(n(C)c2c1)[C@H](CO)N(C(=O)Cc1ccccn1)CC31CCN(CC2CCCC2)CC1 was read as AF4-AF9 inh 0.0.
For COc1ccc2c3c([nH]c2c1)[C@H](CO)N(C(=O)C1CCCC1)CC31CCN(C)CC1 the results were AF4-AF9 inh 2.7.
Screening COc1ccc(-c2ccc(C(=O)Nc3ccccc3)c3occc23)c(C)c1 returned AF4-AF9 inh -7.9.
COc1cccc(NC(=O)N(C)C[C@@H]2Oc3cc(C#CC4(O)CCCC4)ccc3S(=O)(=O)N([C@@H](C)CO)C[C@H]2C)c1 was read as AF4-AF9 inh -2.4.
For COc1ccc(S(=O)(=O)N(C)C[C@H]2Oc3c(NC(=O)c4nc5ccccc5s4)cccc3C(=O)N([C@H](C)CO)C[C@H]2C)cc1 the results were AF4-AF9 inh -0.5.
`COc1ccc(NC(=O)N(C)C[C@H]2Oc3c(NC(=O)c4cc(C)nn4C)cccc3C(=O)N([C@@H](C)CO)C[C@@H]2C)cc1` gave AF4-AF9 inh -1.9.
`COc1ccc(CCNC(=O)Nc2ccc3c(c2)c(=O)n(C)n3Cc2ccc(F)cc2)cc1OC` gave AF4-AF9 inh 0.3.
COc1cccc(S(=O)(=O)N[C@@H]2CC[C@@H](CC(=O)NCc3ccncc3)O[C@H]2CO)c1 was read as AF4-AF9 inh -3.3.
COc1cccc(NC(=O)N[C@H]2CC[C@H](CC(=O)N3CCCCC3)O[C@H]2CO)c1 was read as AF4-AF9 inh -0.8.
